UCH37 inh: inhibitors of human UCH37 deubiquitinase, primary screen, biochemical, Ub-AMC cleavage, fluorescence; Ubiquitin carboxyl-terminal hydrolase isozyme L5 (Homo sapiens), Q9Y5K5; inhibition, % (test concentration not listed); purified proteasome/UCH37; actives 0.33% (n = 330,000);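 active = mean of two replicates above 20%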;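 also: 0% = compound-free wells with enzyme and 100% = wells lacking proteasome; stock transfer was 100 nL into about 20 µL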
Target sequence (Q9Y5K5 whole entry, looked up): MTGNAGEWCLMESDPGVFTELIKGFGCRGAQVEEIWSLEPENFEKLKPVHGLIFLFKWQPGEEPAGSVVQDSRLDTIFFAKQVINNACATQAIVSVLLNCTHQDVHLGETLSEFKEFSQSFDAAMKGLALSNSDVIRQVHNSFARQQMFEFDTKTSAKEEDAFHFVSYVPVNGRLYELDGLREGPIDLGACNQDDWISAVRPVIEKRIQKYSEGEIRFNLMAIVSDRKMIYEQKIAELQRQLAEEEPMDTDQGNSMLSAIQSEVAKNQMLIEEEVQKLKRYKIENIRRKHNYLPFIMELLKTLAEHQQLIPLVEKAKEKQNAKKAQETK
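system = Proteasome-associated human UCH37 deubiquitinase | amount = 0.15 nM proteasome as dispensed | medium = pH 7.4 Tris-HCl (50 mM) with ovalbumin, ATP-MgCl2, DTT | incubation = 30 min preincubation with enzyme, 25 min cleavage at room temperature | detection = AMC fluorescence 355/460 nm | read-out basis = percent inhibition | controls = no-proteasome and no-compound wells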
LANA-H2A inh: blockers of LANA interaction with H2A/H2B – biochemical, FP readout, HTS, primary screen; Protein LANA1 (Human herpesvirus 8 type P (isolate GK18)), Q9QR71; cell-free LANA-H2A/H2B peptide, fluorescence polarization; inhibition, % (no concentration beside the values); actives 0.6% (n = 320,000); AID 2629, 2010; in the data active = inhibition mostly above about 10%, no sharp cut-off; inactive = mostly below about 6.7%;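 also: stock transfer was 7.5 nL into about 10 µL; 0% = median of vehicle wells and 100% = median of positive control wells; one replicate is shown; the record names a cut of 25% in any replicate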
E coli growth: E. coli growth inhibition, primary screen, OD600 | Escherichia coli growth, 23 h; hits give low values | OD600 absorbance (concentration not given with the values) | actives 0.21% (n = 330,000) | AID 1053175, 2014;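 active = OD600 absorbance below the run mean of sample wells minus 3.6 SD, in any replicate, cut at about 0.56 in these data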;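 also: stock transfer was 300 nL into about 60 µL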
HNF4A DNA FP: change in binding of human HNF4A to DNA, primary screen, biochemical, fluorescence polarization, FITC-DNA | Hepatocyte nuclear factor 4-alpha (Homo sapiens), P41235 | 1 h | activity change, % at 10 µM | actives 0.3% (n = 360,000) | AID 1224865, 2016; in the data active = activity change above about 30%, passing the limit was not always enough;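 also: controls were the assay level and a saturating level of protein; the project sought stronger binding though the title names inhibitors; some compounds called inactive have numbers as strong as hits; positive values seem to mean higher polarization but the record does not say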
Beta2AR agonist: beta2AR agonists driving receptor internalization, primary screen, cell-based, FAP fluorogen, flow cytometry; Am2.2-beta2AR cells; reference of the scale not given here; response, % (no concentration beside the values); actives 0.43% (n = 340,000); AID 504454, 2011;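 active = response above a set limit, near 3 SD of response in nonfluorescent compounds, cut at about 42% in these data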;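 also: stock transfer was 100 nL into about 11 µL; a reference agonist was the positive control; negative values mostly stem from fluorescent compounds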
Target sequence (P07550 whole entry, looked up): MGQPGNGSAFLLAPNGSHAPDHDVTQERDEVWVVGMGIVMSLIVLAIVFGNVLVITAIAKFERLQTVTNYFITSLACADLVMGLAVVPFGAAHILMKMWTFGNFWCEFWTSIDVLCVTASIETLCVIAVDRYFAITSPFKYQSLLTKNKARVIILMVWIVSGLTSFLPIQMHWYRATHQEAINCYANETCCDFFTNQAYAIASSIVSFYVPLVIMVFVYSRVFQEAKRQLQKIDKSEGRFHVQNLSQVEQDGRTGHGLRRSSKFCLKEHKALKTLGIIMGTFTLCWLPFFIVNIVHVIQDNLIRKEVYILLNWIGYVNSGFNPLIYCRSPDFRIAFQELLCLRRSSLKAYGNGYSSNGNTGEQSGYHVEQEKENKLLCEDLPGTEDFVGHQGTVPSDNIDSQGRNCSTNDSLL
ALR H2O2 inh: inhibitors of human ALR sulfhydryl oxidase, primary screen, biochemical, H2O2 detection, HRP-luminol luminescence, single point | purified ALR, DTT oxidation | inhibition, % (test concentration not listed) | actives 3.8% (n = 290,000);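 active = mean and each replicate at 75% or more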;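 also: stock transfer was 7.5 nL into about 7.5 µL; 0% = neutral wells and 100% = wells with inactivated enzyme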
Target sequence (P55789 whole entry, looked up): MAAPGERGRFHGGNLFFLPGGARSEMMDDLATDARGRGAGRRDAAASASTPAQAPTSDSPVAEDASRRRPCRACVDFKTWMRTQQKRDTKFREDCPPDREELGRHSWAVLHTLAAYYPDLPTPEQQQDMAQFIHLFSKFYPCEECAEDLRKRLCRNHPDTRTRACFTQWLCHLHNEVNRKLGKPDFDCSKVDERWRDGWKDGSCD
FGF22 binding: binders of human FGF22 protein, primary screen, FGF22 synaptogenesis inhibitor project, biophysical, thermal shift, single point; actives 1.5% (n = 340,000); Fibroblast growth factor 22 (Homo sapiens), Q9HCT0; AID 651658, 2012; calls only at 9.99 µM; recombinant FGF22 thermal shift, SYPRO orange fluorescence; percent of sucrose octasulfate shift, DMSO zero;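 active = melting point raised past a set limit in the mean and every replicate; three in four hits are not shown here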
Numbers without * were called inactive; i = inactive; . = no result given.

canonical_smiles	UCH37 inh	HNF4A DNA FP	LANA-H2A inh	FGF22 binding	Beta2AR agonist	E coli growth	ALR H2O2 inh
CN1CCN(CCC(=O)N/N=C/c2cc3c(cc2[N+](=O)[O-])OCO3)CC1	.	0.9	6.3	i	3	.	-5
CSC(=NNC(=O)c1ccc(O)cc1)SC	0.8	3.5	-0.4	.	8	0.71	-5
COc1ccc(/C=N/NC(=O)c2cc(OC)c(OC)c(OC)c2)cc1CN1CCc2cc(OC)c(OC)cc2C1C (centres undefined)	.	-0.6	-2.5	i	34	.	-13
Cc1cccc(CSCCNC(=O)CN2C(=O)c3ccccc3S2(=O)=O)c1	0.8	3.0	2.9	i	2	0.66	-20
CC12CCC(C(N)=O)(C1Br)C2(C)C (centres undefined)	5.3	-3.7	-0.9	.	2	0.69	-7
CCC(C)Nc1nc(OC(C(F)(F)F)C(F)(F)F)nc(OC(C(F)(F)F)C(F)(F)F)n1 (centres undefined)	2.1	1.8	-5.3	.	-1	0.68	-5
COCCNC(=O)CSc1nc2ccccc2c(=O)n1CCC(=O)N1CCN(c2ccccc2)CC1	-0.3	-3.9	8.4	i	1	0.71	.
COc1cccc(OC)c1OCCCCc1c(C)n[nH]c1C	4.7	-2.2	7.2	i	6	0.67	1
CCOC(=O)c1c(C)[nH]c(C(=O)Nc2cc(OCC)c(N3CCOCC3)cc2OCC)c1C	-17	-1.5	i	i	4	0.69	-13
Cc1nc(SCC(=O)N2CCN(C(=O)c3cccs3)CC2)c2c(C)c(C)sc2n1	5.0	4.6	.	i	6	0.7	.
COc1cc(CCC(=O)OCC(=O)Nc2ccccc2C#N)cc(OC)c1OC	4.7	5.3	1.4	i	1	0.71	-6
Nc1nc(Nc2ccccc2)sc1C(=O)c1ccccc1	.	0.9	6.5	i	5	.	19
COC(=O)c1ccc2c(=O)n(CCCCCC(=O)NCc3ccc4c(c3)OCO4)c(=O)[nH]c2c1	-42	3.9	-4.3	.	6	0.75	-1
COc1cc(C(C)=O)ccc1OCC(=O)Nc1ccc(Cl)c(S(=O)(=O)N2CCOCC2)c1	4.5	-1.0	-4.2	i	21	0.71	-5
Cc1onc(-c2ccccc2)c1C(=O)NCC(O)c1ccccc1 (centres undefined)	0.4	-0.4	3.9	i	-5	0.62	-12
COC(=O)C1CCCCN1C(=O)c1cccc(OC2CCN(C(=O)C3CC3)CC2)c1 (centres undefined)	0.6	3.2	-1.1	i	-8	0.72	-3
O=C(O)c1ccccc1Sc1c([N+](=O)[O-])cc(C(F)(F)F)cc1[N+](=O)[O-]	3.2	-1.6	-1.1	i	-5	0.65	-11
NC(=O)CCn1c(C(=O)c2cccc([N+](=O)[O-])c2)c2ccccc2[n+]1[O-]	2.0	3.4	4.5	i	-4	0.69	-10
Cc1ccccc1NC(=O)Cc1nc(CN(C)CC(=O)Nc2cccc(F)c2)cs1	5.1	4.7	-3.6	i	11	0.65	.
OCCC1CN(Cc2cccn2-c2nccs2)CCN1Cc1ccccc1 (centres undefined)	-1.8	5.8	-3.1	i	11	0.72	3
O=C(COC(=O)CCSc1ccc(Cl)cc1)NCc1ccccc1Cl	2.7	2.0	10	.	3	0.67	-22
CC(C(=O)Nc1ccc(C#N)cc1)N1CCN(C(=O)C2CC2)CC1 (centres undefined)	2.2	-1.0	-1.0	i	5	0.65	-1
CC(=O)c1c(C)[nH]c(C(=O)CN2C(=O)NC(C)(c3ccc4c(c3)OCO4)C2=O)c1C (centres undefined)	0.0	0.5	-3.5	i	6	0.71	-16
COc1ccc(CCN(C)C(=O)CSc2nc3ncc(Cl)cc3[nH]2)cc1OC	0.8	-1.2	0.7	i	-15	0.71	1
CC(Cc1cccnc1)NC(=O)c1cc(COc2c(F)cccc2F)on1 (centres undefined)	3.4	1.4	2.3	i	-9	0.68	-1
COC(=O)Cc1cc(=O)[nH]c(/N=C(\N)Nc2ccccc2)n1	.	3.1	-0.3	.	4	.	-5
CCOC(=O)c1nnc(-c2ccccc2)nc1Oc1ccc(Cl)cc1	4.8	-2.0	-4.8	.	22	0.76	3
Cc1cc(C(F)(F)F)nn1CC(=O)NCc1ccccc1	0.9	-2.7	2.5	.	6	0.7	-23
C/C(CCc1ccc2c(c1)OCO2)=N\N=C1\NC(=O)CC(C(=O)Nc2ccccc2F)S1 (centres undefined)	.	-2.6	0.3	i	0	.	7
Cc1ccccc1OCCC(=O)OCC(=O)NCCc1ccccc1	-0.4	2.0	5.2	i	0	0.61	-5
COc1ccc(/C=C\C(=O)NCc2ccc3c(c2)cc(C)n3C)cc1OC	2.0	0.8	-0.2	i	-1	0.8	-38
COc1ccc(N(Cc2cc3cc(OC)ccc3[nH]c2=O)S(C)(=O)=O)cc1	-56	-1.6	7.7	.	-7	0.71	.
CCSc1nnc2nc(C)cc(C)n12	2.0	-0.3	0.8	.	-11	0.73	-8
O=C(c1cc2ccccc2o1)N1CCCCCC1	1.8	3.5	-1.5	.	0	0.68	6
CCCCN(C(=O)c1cc(Cl)nc2ccccc12)c1c(N)n(Cc2ccccc2)c(=O)[nH]c1=O	-0.3	0.7	3.0	i	-3	0.7	-8
NC(=O)c1c(NC(=O)Cc2cccs2)sc2c1CCC2	-2.6	-2.4	6.3	.	-8	0.72	1
CC(=O)N1CCN(C(=O)CCNC(=O)c2ccc(Br)cc2)CC1	-0.6	0.5	.	i	-3	0.68	.
Cc1ccn(CCSCC(=O)O)n1	4.1	1.4	-0.1	.	9	0.68	-5
O=C(C[N+]1(CC#Cc2ccccc2)CCOCC1)c1ccc(Cl)cc1	4.6	-4.3	1.8	i	3	0.67	-12
COc1ccc(CNCc2ccc([N+](=O)[O-])cc2)cc1OC	2.8	-2.3	-3.7	i	0	0.72	5
Cc1sc2ncnc(NCc3ccco3)c2c1C	.	3.6	-14	.	-3	.	7
CC(OC(=O)Cc1n[nH]c(=O)c2ccccc12)C(=O)Nc1cc(Cl)cc(Cl)c1 (centres undefined)	-0.2	-3.1	.	i	-5	0.66	.
Cc1oc2c(CN3CCCC(C)C3)c(O)ccc2c(=O)c1-c1ccccc1 (centres undefined)	i	0.8	-0.1	i	0	0.69	-2
O=C(NC1CCCCC1)c1ccc(S(=O)(=O)c2ccccc2)cc1	1.4	-1.9	-0.3	i	-6	0.69	3
OCCNc1nc(Nc2ccccc2Oc2ccccc2)nc(N2CCCC2)n1	1.3	1.6	-5.0	i	-6	0.64	9
C=CC(=O)NC(C)(C)Cc1ccccc1	2.2	2.5	-4.0	.	8	0.64	-8
COc1cccc(NC2=NC3(CCCCC3)N=C(N)N2)c1	3.9	-0.1	-0.6	.	7	0.69	-8
N#C/C(=C\c1ccccc1)C(=O)NNS(=O)(=O)c1ccc(Br)cc1	2.1	0.6	-3.7	i	1	0.64	.
COc1ccc(/C=C(/C#N)C(=O)Nc2ccc(C)cc2C)cc1C(=O)O	6.2	-1.7	-7.4	.	-1	.	2
COc1cc([N+](=O)[O-])ccc1NC(=S)NCc1ccccn1	7.2	-3.6	-1.4	.	-6	0.69	.

Ordered by number of heavy atoms (lowest first): some entries from above.
canonical_smiles	UCH37 inh	HNF4A DNA FP	LANA-H2A inh	FGF22 binding	Beta2AR agonist	E coli growth	ALR H2O2 inh
Cc1ccn(CCSCC(=O)O)n1	4.1	1.4	-0.1	.	9	0.68	-5
C=CC(=O)NC(C)(C)Cc1ccccc1	2.2	2.5	-4.0	.	8	0.64	-8
Cc1sc2ncnc(NCc3ccco3)c2c1C	.	3.6	-14	.	-3	.	7
NC(=O)c1c(NC(=O)Cc2cccs2)sc2c1CCC2	-2.6	-2.4	6.3	.	-8	0.72	1
COc1cc([N+](=O)[O-])ccc1NC(=S)NCc1ccccn1	7.2	-3.6	-1.4	.	-6	0.69	.
CC(=O)N1CCN(C(=O)CCNC(=O)c2ccc(Br)cc2)CC1	-0.6	0.5	.	i	-3	0.68	.
O=C(NC1CCCCC1)c1ccc(S(=O)(=O)c2ccccc2)cc1	1.4	-1.9	-0.3	i	-6	0.69	3
O=C(C[N+]1(CC#Cc2ccccc2)CCOCC1)c1ccc(Cl)cc1	4.6	-4.3	1.8	i	3	0.67	-12
COc1ccc(/C=C(/C#N)C(=O)Nc2ccc(C)cc2C)cc1C(=O)O	6.2	-1.7	-7.4	.	-1	.	2
Cc1oc2c(CN3CCCC(C)C3)c(O)ccc2c(=O)c1-c1ccccc1 (centres undefined)	i	0.8	-0.1	i	0	0.69	-2
CC(OC(=O)Cc1n[nH]c(=O)c2ccccc12)C(=O)Nc1cc(Cl)cc(Cl)c1 (centres undefined)	-0.2	-3.1	.	i	-5	0.66	.
OCCNc1nc(Nc2ccccc2Oc2ccccc2)nc(N2CCCC2)n1	1.3	1.6	-5.0	i	-6	0.64	9
CCCCN(C(=O)c1cc(Cl)nc2ccccc12)c1c(N)n(Cc2ccccc2)c(=O)[nH]c1=O	-0.3	0.7	3.0	i	-3	0.7	-8

Additional entries:
canonical_smiles	UCH37 inh	HNF4A DNA FP	LANA-H2A inh	FGF22 binding	Beta2AR agonist	E coli growth	ALR H2O2 inh
O=Cc1ccc(Cl)c(Cl)c1	3.7	-0.6	-6.3	i	-2	0.69	24
COc1cc(OC)cc(-c2cc3ccc(F)cc3cn2)c1	2.0	-3.9	-0.7	i	-6	0.7	0
Clc1ccc(CNC2CCN(Cc3ccccc3)CC2)cc1	4.8	4.2	2.2	i	-6	0.67	.
CCSc1nc2cc(C(=O)OC)ccc2c(=O)n1CC	-10	0.2	9.1	.	-3	0.66	-4
COc1ccccc1Cn1nnc2c(=O)[nH]c(C3CCN(C(=O)c4ccc(F)cc4)CC3)nc21	-0.2	1.9	-7.9	.	-1	0.74	-7
Cc1cc(F)ccc1S(=O)(=O)NCC(c1cccnc1)N1CCc2ccccc21 (centres undefined)	4.9	1.0	-2.2	i	-2	0.7	19
O=C(COC(=O)c1ccccc1Br)Nc1cc(S(=O)(=O)N2CCOCC2)ccc1N1CCCC1	4.4	-4.5	1.7	i	-3	0.67	-1
O=C(CCSCc1ccccc1Cl)N1CCN(c2ccccn2)CC1	-1.7	2.3	0.0	.	-16	0.71	-26
Cc1noc(C)c1COC(=O)c1cc2c3ccccc3n(C)c2s1	-3.1	-0.8	1.3	.	-1	0.69	23
COc1cc(CN2CCN(C(=O)c3ccccc3F)CC2)cc(OC)c1OC	0.3	1.1	-1.4	i	1	0.69	-15
CC1CCN(c2c(NCC3CCC(C(=O)NCCc4ccccc4)CC3)c(=O)c2=O)CC1 (centres undefined)	6.2	-1.5	1.4	i	-1	0.71	.
CCc1ccc(/C=C2/SC(=S)N(CCC(=O)Nc3ccc(C(=O)O)cc3)C2=O)cc1	.	23	-4.0	i	5	.	-9
Cc1ccc(C(=O)c2ccc(N3CCOCC3)c(F)c2)cc1	-3.1	-2.8	1.4	.	0	0.71	4
O=C(CNc1ccc2ccccc2c1)N/N=C/c1ccccn1	.	-1.2	-4.4	i	-6	.	.

Screens (PubChem BioAssay)

A portion of the library; rates above refer to the full screens.
